PV pol inh – poliovirus RdRp elongation inhibitors, primary screen, biochemical, fluorescence polarization, total intensity | Genome polyprotein (Poliovirus type 1 (strain Mahoney)), P03300 | poliovirus polymerase elongation; hits give low values | % elongation, % (compound at 16.7 µg/mL) | 150,000 compounds, 0.66% hits | AID 588519, 2011; in the data active = % elongation below about 90%; also: some results filed as inactive read as strong as hits
Target sequence (P03300 1749-2209 limits assumed): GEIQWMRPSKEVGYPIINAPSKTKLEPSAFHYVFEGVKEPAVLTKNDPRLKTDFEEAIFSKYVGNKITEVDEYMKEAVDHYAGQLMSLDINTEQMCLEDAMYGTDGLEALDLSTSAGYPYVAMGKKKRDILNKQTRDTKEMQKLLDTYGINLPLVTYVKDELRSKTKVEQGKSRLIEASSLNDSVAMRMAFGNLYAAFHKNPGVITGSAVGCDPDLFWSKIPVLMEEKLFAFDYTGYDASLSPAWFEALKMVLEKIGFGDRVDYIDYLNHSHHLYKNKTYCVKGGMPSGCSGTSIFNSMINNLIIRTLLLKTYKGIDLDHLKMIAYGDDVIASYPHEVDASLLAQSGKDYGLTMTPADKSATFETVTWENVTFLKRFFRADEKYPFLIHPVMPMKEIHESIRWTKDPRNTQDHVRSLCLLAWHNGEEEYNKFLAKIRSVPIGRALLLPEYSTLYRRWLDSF
PV pol inh intensity – also measured in PV pol inh; calls as there; % elongation; measured here: total intensity read-out; formula for this scale not given here;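 total fluorescence in place of polarization; lower means less elongation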
* hit, by the source's call. These rows are one share of the data. The share of hits here may be higher or lower than overall.

SMILES	PV pol inh	PV pol inh intensity
COc1ccc(NC(=O)c2c(NC(=O)c3ccncc3)sc3c2CCC(C(C)(C)C)C3)cc1 (configuration not stated)	102.0	99.0
COc1ccc(-c2nc(CSc3nc4ncccc4[nH]3)c(C)o2)cc1OC	104.0	107.0
O=C(Nc1ccccc1C(F)(F)F)n1ncc2cc(Cl)ccc21	107.0	104.0
CCOc1cccc2sc(N(Cc3cccnc3)C(=O)c3ccc(C#N)cc3)nc12	106.0	111.0
O=C(NC1(C(F)(F)F)C(=O)Nc2c1c(=O)[nH]c(=O)n2CCc1ccccc1)c1ccc(Cl)cc1Cl (configuration not stated)	105.0	108.0
Cc1ccc(-c2nc(CS(=O)CC(=O)N3CCN(c4ccc(F)cc4)CC3)c(C)o2)cc1 (configuration not stated)	103.0	103.0
COc1ccc(Cn2ccc3nc(C)c(C(=O)Nc4ccc(F)cc4)cc3c2=O)cc1	99.0	106.0
COC(=O)c1c(NC(=O)COc2ccc(C)cc2Br)sc2c1CCCC2	107.0	107.0
O=C(C1CCN(S(=O)(=O)c2cccc3nonc23)CC1)N1CCN(c2ccccc2)CC1	107.0	113.0
CCc1ccccc1N1C(=O)N(Cc2ccc(C#N)cc2)c2ccccc2S1(=O)=O	103.0	99.0
CCc1cnc2c(c1SCc1ccccc1C)c(=O)n(C)c(=O)n2C	102.0	107.0
COC(=O)c1cc(NC(=O)c2nn(C)c3c2COc2ccccc2-3)cc(C(=O)OC)c1	114.0	111.0
CCc1ccc(-c2nc3cc(NC(=O)c4cc5ccccc5cc4OC)ccc3o2)cc1	104.0	109.0
COc1cc(NC(=O)Cn2cnc3sc(C)c(S(=O)(=O)N4CCN(C)CC4)c3c2=O)cc(OC)c1OC	101.0	99.0
CCC(=O)Nc1ccc(CC)cc1-c1nc2ccccc2n(CC(=O)Nc2cccc(Cl)c2)c1=O	108.0	115.0

Structures from the list above containing a Cl atom:
SMILES	PV pol inh	PV pol inh intensity
O=C(Nc1ccccc1C(F)(F)F)n1ncc2cc(Cl)ccc21	107.0	104.0
O=C(NC1(C(F)(F)F)C(=O)Nc2c1c(=O)[nH]c(=O)n2CCc1ccccc1)c1ccc(Cl)cc1Cl (configuration not stated)	105.0	108.0
CCC(=O)Nc1ccc(CC)cc1-c1nc2ccccc2n(CC(=O)Nc2cccc(Cl)c2)c1=O	108.0	115.0

Going on with the list:
SMILES	PV pol inh	PV pol inh intensity
Cc1ccccc1OCC(=O)Nc1nnc(S(=O)(=O)N2CCCCCC2)s1	108.0	112.0
O=C(Cn1c(SCc2cccc(F)c2)nc2cccnc21)Nc1ccc(F)c(Cl)c1	108.0	114.0
C=Cc1ccc(Cn2c(=O)n(CC3CCC(C(=O)NC(C)C)CC3)c(=O)c3sccc32)cc1 (configuration not stated)	108.0	107.0
Cc1ccc(NC(=O)c2cc3c([nH]c2=O)CC(C)(C)CC3=O)c(C)c1	108.0	113.0
N#Cc1c[nH]n2c(NC3CCCC3)c(-c3ccc(Cl)cc3)nc12	111.0	111.0
CC(=O)c1ccc(NC(=O)CSc2nc(-c3ccccc3C)nc3c2c(=O)n(C)c(=O)n3C)cc1	111.0	100.0
CC(NC(=O)C1CCN(c2nc3ccccc3nc2C(F)(F)F)CC1)c1ccccc1 (configuration not stated)	104.0	108.0
COc1ccc(-c2noc(N3CCC(C(=O)N4CCN(c5ccccc5F)CC4)CC3)n2)cc1	101.0	97.0
Cc1ccc(N2CC(NC(=O)c3ccc4c(c3)OCO4)CC2=O)cc1 (configuration not stated)	107.0	108.0
Oc1c(C(c2ccccc2)N2CCN(c3ccccc3)CC2)sc2nc(-c3ccco3)nn12 (configuration not stated)	112.0	105.0
CCc1ccc(-c2[nH]nc3nc(-c4cc(OC)ccc4OC)cc(C(=O)O)c23)cc1	106.0	107.0
CC1=C(C(=O)Nc2ccccc2C)C(c2cccnc2)n2nc(SCc3ccccc3F)nc2N1 (configuration not stated)	106.0	107.0
COc1ccccc1-c1cc2nc(C)c(CCC(=O)Nc3ccc(Br)c(C)c3)c(C)n2n1	106.0	108.0
O=C(COc1ccccc1Cl)OCc1cc(=O)n2nc(C3CC3)sc2n1	108.0	111.0
CCCCN(CC)CCCNC(=O)c1sc2nc3n(c(=O)c2c1C)CCCCC3	110.0	106.0

The final two entries of the section before lead into the next.
SMILES	PV pol inh	PV pol inh intensity
O=C(COc1ccccc1Cl)OCc1cc(=O)n2nc(C3CC3)sc2n1	108.0	111.0
CCCCN(CC)CCCNC(=O)c1sc2nc3n(c(=O)c2c1C)CCCCC3	110.0	106.0
COc1ccc(CNC(=O)c2ccc3c(c2)N(Cc2c(F)cccc2Cl)C(=O)CS3)cc1	110.0	109.0
Cc1ccc(-c2nnc(Nc3ccc(O)cc3)c3ccccc23)cc1S(=O)(=O)N1CCOCC1	106.0	107.0
CCOc1ccccc1C1C(C(=O)Nc2ccccc2OC)=C(C)Nc2nc3ccccc3n21 (configuration not stated)	104.0	109.0
CCOc1ccc(CCNc2ncnc3onc(-c4ccc(Cl)cc4)c23)cc1OCC	108.0	108.0
COc1ccc(-n2ncc3c(NCCCOC(C)C)ncnc32)cc1	112.0	113.0
Cc1cc(C(=O)C(=O)Nc2nnc(C(C)C)s2)c(C)n1-c1ccccc1	102.0	97.0
O=C(Nc1cc2c(cc1C(=O)c1ccccc1Cl)OCCO2)c1ccccc1	102.0	101.0
Cc1ccc2c(c1)cc1c(=O)n(CC(=O)NCc3ccco3)nc(C)n12	107.0	111.0
Cc1ccc(NC(=O)CCn2c(=O)c3cccn3c3ccccc32)cc1C	104.0	111.0
Cc1ccc(CN2CCc3nc(N4CCN(c5ccccc5F)CC4)ncc3C2)cc1C	110.0	112.0
Cc1cccc(-c2nc3c4ccccc4n(CC(=O)Nc4cc(F)ccc4F)c(=O)n3n2)c1	106.0	111.0
CCc1nnc(SCc2cccc(F)c2)c2cc3sc(C)cc3n12	101.0	103.0
CCCCOc1ccccc1Cn1c(=O)sc2ccccc21	108.0	106.0
O=C(C1CCC1)N1CCc2cc(S(=O)(=O)NCCc3ccccc3)ccc21	111.0	106.0
Cc1ccc2occ(CC(=O)N(Cc3ccc(Cl)cc3)Cc3ccco3)c2c1	114.0	111.0

As a working copy, 2 of the compounds above.
SMILES	PV pol inh	PV pol inh intensity
COc1ccccc1-c1cc2nc(C)c(CCC(=O)Nc3ccc(Br)c(C)c3)c(C)n2n1	106.0	108.0
O=C(COc1ccccc1Cl)OCc1cc(=O)n2nc(C3CC3)sc2n1	108.0	111.0

Next part.
SMILES	PV pol inh	PV pol inh intensity
Cc1ccc(Cl)cc1-n1c(=O)cc(N2CCN(c3ccc(F)cc3)CC2)[nH]c1=O	107.0	113.0
COc1ccc(C2CC(=O)c3c([nH]c(C(=O)OCc4ccccc4)c3C)C2)cc1 (configuration not stated)	109.0	113.0
CCc1nn(Cc2cccc(F)c2)c(=O)c2cc3cc(C)ccc3n12	106.0	111.0
COc1cccc(CNS(=O)(=O)c2ccc(N3CCCCS3(=O)=O)cc2)c1	107.0	115.0
Cc1ccc(CN(C(=O)COc2ccc(C)c(C)c2)C2CCS(=O)(=O)C2)o1 (configuration not stated)	115.0	116.0
Cc1ccc(-c2cc(C(F)(F)F)n3nc(C(=O)Nc4ccc(C#N)cc4)cc3n2)cc1	105.0	109.0
COC(=O)Cn1ccc2cc(S(=O)(=O)N3CCCCC3)ccc21	105.0	104.0
COc1ccc(C(=O)N2CCN(Cc3cc(=O)n4nc(-c5ccccc5C)sc4n3)CC2)cc1OC	111.0	114.0
COc1cccc(-c2nc(SCc3cc(=O)c4ccc(C)c(C)c4[nH]3)n[nH]2)c1	111.0	107.0
Cc1cccc(NC(=O)Cn2c(=O)n(CCc3ccccc3)c(=O)c3ccccc32)c1	107.0	112.0
CCc1ccc(NC(=O)Cn2c(=O)n(CCC(=O)NCCc3ccc(Cl)cc3)c(=O)c3ccccc32)cc1	105.0	108.0
CCCCNC(=O)CCCn1c(=O)c2ccccc2n(Cc2cccc(Cl)c2)c1=O	103.0	103.0
CCOc1ccc(-c2cc(NC(=O)c3cccc(Cl)c3)c(C(=O)OC)s2)cc1	108.0	110.0
CCCCC1CCC(C(=O)N2CC(=O)Nc3ccc(F)cc3C2c2ccc(F)cc2)CC1 (configuration not stated)	104.0	108.0
COc1ccc(CC(=O)NCc2ccc3c(c2)CCN3C(=O)c2ccccc2)cc1OC	112.0	111.0
Cc1cc(C)n(-c2nc3ccccc3nc2Nc2cccc(C(F)(F)F)c2)n1	106.0	110.0
Cc1ccc(N2CC(C)Cn3c2nc2c3c(=O)n(CC(=O)O)c(=O)n2C)cc1 (configuration not stated)	103.0	105.0
O=C(CCC1N=C2c3ccccc3N=C(SCc3ccc(F)cc3)N2C1=O)NCCc1ccccc1 (configuration not stated)	106.0	94.0
O=c1[nH]c(SCc2ccccc2)nc2c1CCCC2	111.0	117.0
COc1cccc(NS(=O)(=O)c2cc3c4c(c2)C(C)C(=O)N4CCC3)c1 (configuration not stated)	106.0	108.0
O=C1CN=C(c2ccccc2)c2cc(Cl)ccc2N1Cc1ccc(Cl)cc1	110.0	113.0
COc1cc(NC(=O)CCCSc2nc(-c3ccco3)cc(C(F)(F)F)n2)cc(OC)c1OC	102.0	107.0
CCCCN(CC)CCNC(=O)c1cc2c(=O)[nH]c3ccccc3c2n1C	96.0	100.0
CNC(=O)COc1ccc(NC(=O)CCn2nc(-c3ccc(C)cc3)c3ccccc3c2=O)cc1	108.0	112.0
CCN(CC)CCNC(=O)c1cn(CC)c2ccc(S(=O)(=O)N3CCOCC3)cc2c1=O	103.0	103.0
Cc1ccc(Cl)cc1NC(=O)CN1C(=O)COc2ccc(S(=O)(=O)N3CCCCCC3)cc21	121.0	118.0
CCN(Cc1ccccc1)C(=O)C1CCN(S(=O)(=O)c2ccc3c(c2)CCCN3C(C)=O)CC1	108.0	112.0
CCOC(=O)C1=C(CN2CCN(c3cc(C)ccc3C)CC2)NC(=O)NC1c1ccc(Cl)cc1 (configuration not stated)	109.0	111.0
CC(C)c1ccc(S(=O)(=O)c2nnn3c2nc(NC2CCCC2)c2sccc23)cc1	107.0	113.0
CCOC(=O)c1sc(N2C(=O)c3oc4ccc(C)cc4c(=O)c3C2c2ccccc2F)nc1C (configuration not stated)	104.0	100.0
COc1ccc(Cl)cc1N(C)C(=O)c1ccc2c(=O)n3c(nc2c1)CCCCC3	101.0	106.0
COc1cc(C2c3c(-c4ccccc4O)n[nH]c3C(=O)N2Cc2ccncc2)cc(OC)c1OC (configuration not stated)	101.0	107.0
Cc1cccc(CNC(=O)CCn2ccc3cc(S(=O)(=O)N4CCCC4)ccc32)c1	109.0	116.0
COc1cccc(NC(=O)CNC(=O)Cn2c(C)cc3ccccc3c2=O)c1	111.0	108.0
CCOc1ccc(CCNC(=O)CN2C(=O)c3cccnc3Oc3ccc(C)cc32)cc1OCC	106.0	110.0
O=C(Nc1ccc2nc(SCC(=O)N3CCOCC3)sc2c1)c1ccc(Br)cc1	112.0	108.0
COc1cccc(NC(=O)c2c(C)nn(-c3cccc(C)c3)c2-n2cccc2)c1	116.0	99.0
CCSc1nnc2c(n1)OC(c1ccc(C)s1)Nc1ccccc1-2 (configuration not stated)	92.0	121.0
CCOc1ccc(-c2cc3nc(C4CCN(C(=O)OC(C)(C)C)CC4)c(C(=O)Nc4ccc(C)c(F)c4)cn3n2)cc1	105.0	112.0
CC1=C(C(=O)Nc2cccnc2)C(c2cccc(Br)c2)n2nc(SCc3ccccc3)nc2N1 (configuration not stated)	107.0	111.0
Cc1cccc(CSc2cn(CC(=O)N3CCCC3)c3ccccc23)c1	119.0	116.0
Cc1ccc(CSc2oc(-c3cccs3)nc2S(=O)(=O)c2ccccc2)cc1	108.0	114.0
CCOc1ccccc1C(=O)Nc1nc2c(s1)CC(C)CC2 (configuration not stated)	99.0	95.0
CCOc1ccc(-c2cc3c(=O)n(Cc4nc(-c5ccc(OC(C)C)cc5)oc4C)ccn3n2)cc1Cl	99.0	98.0
CCOc1ccc(N(CC(=O)Nc2ccc(F)cc2F)S(=O)(=O)c2c(C)[nH]c(=O)[nH]c2=O)cc1	100.0	101.0
CCOc1ccccc1NC(=O)Cn1ncc2c(=O)oc3ccc(C)cc3c21	106.0	109.0

One compound at a time (already shown). Screens in order: PV pol inh	PV pol inh intensity
Profile of CCOc1ccccc1NC(=O)Cn1ncc2c(=O)oc3ccc(C)cc3c21 : 106.0	109.0
Profile of COc1cc(C2c3c(-c4ccccc4O)n[nH]c3C(=O)N2Cc2ccncc2)cc(OC)c1OC (configuration not stated) : 101.0	107.0
Profile of CCOc1ccccc1C(=O)Nc1nc2c(s1)CC(C)CC2 (configuration not stated) : 99.0	95.0
Profile of COc1cccc(NC(=O)c2c(C)nn(-c3cccc(C)c3)c2-n2cccc2)c1 : 116.0	99.0
Profile of CC1=C(C(=O)Nc2cccnc2)C(c2cccc(Br)c2)n2nc(SCc3ccccc3)nc2N1 (configuration not stated) : 107.0	111.0
